Compound activity deposited in PubChem BioAssay by several laboratories.
PrP UTR inh – inhibition of PrP 5' UTR reporter expression. cell-based PrP 5' UTR mRNA reporter, plate reader. inhibition, % (concentration not given with the values). hit rate 0.35% among 340,000;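 active means every replicate at 50% or more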;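 further: 0 = median of the neutral control wells; tested in H4 reporter cells; numbers are from one replicate; inactives centre near -14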
Mtb hypoxia inh – reduces hypoxia-regulated biosensor signal in M. tuberculosis. M. tuberculosis hypoxia-regulated fluorescent reporter, fluorescence. fluorescence inhibition, % (no concentration beside the values). hit rate 0.1% among 300,000;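 active means 35 to 45% if threefold the growth effect, above 45% if 1.5-fold the growth effect; inactive means the rest, general growth blockers included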;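 further: wells of about 50 µL received 100 nL stock; 0% = vehicle wells and 100% = reference inhibitor wells; whole bacteria with a GFP reporter of the hypoxia response; strong numbers were not always called active; many hits fall short of the cut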
ugtP null kill – compounds lethal to S. aureus RN4220 ugtP deletion mutant. growth inhibition, % (no concentration beside the values). hit rate 0.54% among 330,000. OD600 growth, 16 h; some inactives read as strong as hits;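 active means z-score under -3 and OD600 up to 0.15 on both plates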;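 further: plate controls were untreated wells for no effect and antibiotic for full effect; wells of about 80 µL received 100 nL stock; the first replicate is given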
Sa RN4220 lethal – kills Staphylococcus aureus RN4220 | S. aureus RN4220 growth, OD600, 16 h | inhibition, % (test concentration not listed) | hit rate 0.33% among 330,000;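 active means z-score of -3 or lower and OD600 up to 0.18 on both plates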;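 further: plate controls were untreated cells for no effect and reference antibiotic for full effect; stock transfer was 100 nL into about 80 µL; one replicate is shown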
BJeLR lethal – kills HRASV12-expressing BJeLR cells | AID 1554 | hit rate 0.17% among 300,000 | BJeLR (HRASV12) viability, CellTiter-Glo ATP luminescence, 48 h; reference of the scale not given here | inhibition, % (test concentration not listed);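 active means replicate mean above 50%; inconclusive means above 50% but judged a plate artefact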;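 further: 50 nL library stock added to about 25 µL; numbers are from one replicate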
Autofluor counter – compound fluorescence in toxin protease inhibitor counterscreen; compound autofluorescence counterscreen, microsphere flow cytometry; hits give high values; fluorescence intensity (no concentration beside the values); hit rate 3.1% among 360,000; AID 624483;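 active means at least 3 SD above the mean of all compounds, about 16000 in these data; inconclusive means too few beads counted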;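 further: 100 nL of 1 mM stock went into each well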
Mtb hypoxia inh growth – recorded beside Mtb hypoxia inh, whose call it bears; growth inhibition, %; measured here: M. tuberculosis growth (absorbance);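 0% = vehicle and 100% = reference antibiotic; read after six days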
Starred values were filed as active, the others as inactive; ? = inconclusive; nt = not tested or not shown. Compounds as they come; 4% or so of the library scored in one or more.

SMILES	PrP UTR inh	Mtb hypoxia inh	Mtb hypoxia inh growth	ugtP null kill	Sa RN4220 lethal	BJeLR lethal	Autofluor counter
COc1ccc(N2CCN(C(=O)C3CCCN(S(=O)(=O)c4c(C)noc4C)C3)CC2)cc1 (configuration not stated)	-10	8	0	11	7.7	1	4425
COc1ccc(S(=O)(=O)NCCNC(=O)N2CCOCC2)cc1	-24	6	-8	5	1.6	-2	4284
COc1ccc(N2CCN(CC(=O)c3c[nH]c4ccccc34)CC2)cc1	-16	-8	-12	6	5.7	9	3577
CCOc1ccc(S(=O)(=O)N(C)CC(=O)N2CCCC2)cc1	-20	3	-6	0	0.3	-18	3093
Nc1cc(S(=O)(=O)c2ccc(O)c(N)c2)ccc1O	-11	5	-6	-1	1.5	-2	4176
CCC(=O)c1ccc(OCC(=O)Nc2cc(S(=O)(=O)N3CCCCC3)ccc2OC)cc1	-13	4	6	6	0.5	-2	6059
CC(C)CCn1c(CN2CCN(C(=O)c3ccco3)CC2)nc2c1c(=O)n(C)c(=O)n2C	-13	6	3	11	1.0	-4	5594
COc1ccc(NC(=O)/C(C#N)=C/c2ccc(Br)o2)cc1	-23	2	8	1	2.1	-1	14784
COC(=O)c1c(NC(=O)CSc2nc(-c3ccco3)cc(C(F)(F)F)n2)sc2c1CCCC2	-17	1	2	14	2.0	13	7998
Cc1cc(-c2nnc3sc(-c4ccc(Cl)cc4Cl)nn23)n[nH]1	-9	nt	nt	1	-0.4	6	2579
Cc1cc(NC(=O)c2ccc(F)cc2)n(-c2ccccn2)n1	-3	1	3	-15	3.2	-1	4686
COc1cc(C(=S)N2CCOCC2)ccc1OC(=O)c1cc(OC)c(OC)c(OC)c1	-22	3	3	15	-2.2	-4	3668
CCCCSCc1[nH]c(=O)[nH]c1C(=O)CCCCC(=O)OCC	-13	3	-7	-3	-0.2	4	3024
COCc1nnc(SCC(=O)NC(C)c2ccccc2)n1-c1ccccc1 (configuration not stated)	-35	16	4	-2	4.0	-13	4084
CCCCN(Cc1cc2cccc(C)c2[nH]c1=O)S(C)(=O)=O	-12	1	17	9	1.2	11	3725
O=C(NC1CCCCC1)C(Cc1ccccc1)NS(=O)(=O)c1cccs1 (configuration not stated)	-69	14	5	8	5.3	0	7244
CCCc1cc(C(=O)OC)c(NC(=O)CCCC(=O)O)s1	-28	0	9	7	2.9	-2	4683
CCOC(=O)CSc1nnc(SCCN2C(=O)c3ccccc3C2=O)s1	-11	nt	nt	nt	nt	3	3694
CCOC(=O)C1CCN(C(=O)NC23CC4CC(CC(C4)C2)C3)CC1	-16	-7	0	2	5.2	-9	12282
COc1cccc(CNC(=O)c2ccc(NC(=O)CC3SC(N4CCCCC4)=NC3=O)cc2)c1 (configuration not stated)	-1	3	2	0	3.0	nt	nt
O=C(O)c1ccccc1NCN1C(=O)C2CC=C(Cl)CC2C1=O (configuration not stated)	-1	-5	0	-6	-1.8	-1	24033*
Cc1ccc(Nc2nc(-c3ccc(S(=O)(=O)N4CCCC4)cc3)cs2)cc1C	-66	8	9	-24	-0.8	12	25361*
O=C(Nc1nnc(CC2=CCCCC2)s1)Nc1ccccc1F	nt	-1	3	3	0.1	5	nt
CC1(C)Cc2cccc(OCC(=O)Nc3ccccc3N3CCOCC3)c2O1	-15	16	4	-7	5.5	2	16540*

One compound at a time, from the list above. Order of values: PrP UTR inh | Mtb hypoxia inh | Mtb hypoxia inh growth | ugtP null kill | Sa RN4220 lethal | BJeLR lethal | Autofluor counter
CCOC(=O)CSc1nnc(SCCN2C(=O)c3ccccc3C2=O)s1 as listed: -11 | nt | nt | nt | nt | 3 | 3694
Cc1ccc(Nc2nc(-c3ccc(S(=O)(=O)N4CCCC4)cc3)cs2)cc1C as listed: -66 | 8 | 9 | -24 | -0.8 | 12 | 25361*
O=C(Nc1nnc(CC2=CCCCC2)s1)Nc1ccccc1F as listed: nt | -1 | 3 | 3 | 0.1 | 5 | nt
O=C(NC1CCCCC1)C(Cc1ccccc1)NS(=O)(=O)c1cccs1 (configuration not stated) as listed: -69 | 14 | 5 | 8 | 5.3 | 0 | 7244

Other structures follow:
SMILES	PrP UTR inh	Mtb hypoxia inh	Mtb hypoxia inh growth	ugtP null kill	Sa RN4220 lethal	BJeLR lethal	Autofluor counter
C/C(Cl)=C\Cn1c(Nc2ccccc2)nc2c1c(=O)n(C)c(=O)n2C	-28	11	10	-1	2.8	-4	2332
COc1ccc(N2CCN(C(=O)Cn3nnc(-c4ccc(N(C)C)cc4)n3)CC2)cc1	nt	4	5	5	7.3	-7	4000
CC(=O)Nc1ccc(C(=O)N/C(=C/c2ccccc2)C(=O)N2CCCCC2)cc1	-11	12	5	5	3.9	-6	3688
Cc1ccc([N+](=O)[O-])cc1S(=O)(=O)NCCc1c(C)[nH]c2c(C)cccc12	-7	4	8	-11	9.8	4	2951
Cc1ccc(N2C(=O)c3n[nH]c(C)c3C2c2cccnc2)cc1 (configuration not stated)	-25	-2	4	2	3.2	-5	8951
NS(=O)(=O)c1ccc(CNC(=O)c2cc(S(=O)(=O)N3CCOCC3)c(Cl)cc2Cl)cc1	-4	-6	9	-3	1.0	nt	?
Cc1ccc(N2CC(C(=O)Nc3nnc(C)s3)CC2=O)cc1 (configuration not stated)	-27	12	4	-2	0.6	1	10290
Cn1c(=O)c(C(=O)Nc2ncccn2)c(O)c2ccccc21	-47	nt	nt	-1	5.8	10	2769
COCCNC(=O)C(c1ccc(C)cc1)N(C(=O)CCC(=O)Nc1ccccn1)c1ccccc1C (configuration not stated)	3	13	2	7	-0.6	-7	5413
COCCN(Cc1cc2cccc(C)c2n2nnnc12)C(=O)C(F)(F)F	-25	4	3	-6	2.4	-5	11802
CCc1nnc(/N=C/c2c(O)n(-c3ccc(Cl)cn3)c(=O)c3ccccc23)s1	-29	-4	-2	2	4.7	-18	1973
COC(=O)CCC(=O)OC1(C)C(=O)C=C2C=C(C3CC3)N(CC3CC3)C=C2C1=O (configuration not stated)	21	5	13	1	2.5	-9	3904
CCOc1ccc2ccccc2c1C=NNC(=O)CC1(C)OCCCO1	nt	15	4	9	7.9	nt	nt
CC1(NS(=O)(=O)c2ccc(Cl)s2)CCS(=O)(=O)C1 (configuration not stated)	1	4	2	1	0.9	nt	3312
COC(=O)CN1C(=O)[C@H]2[C@@H](c3ccc(C)o3)N3C(=O)CN(CCO)C(=O)[C@@]3(C)[C@H]2C1=O	-5	nt	nt	nt	nt	0	3899
CC(=O)N1c2ccccc2S(=O)(=O)c2ccccc21	-10	9	13	-1	3.6	-2	3568
CCC(=O)c1c(NC)cc(C)oc1=O	-17	10	-2	6	3.3	-4	3967
C/C(C=Nn1c(-c2ccncc2)n[nH]c1=S)=C/c1ccccc1	nt	10	3	-4	11	nt	nt
COc1ccc(/C=C2\CN(Cc3ccccc3)C/C(=C\c3ccc(OC)c(O)c3)C2=O)cc1O	16	nt	nt	nt	nt	69*	5532
O=C1NC(=O)C2(CCCC2c2ccccc2)N1 (configuration not stated)	-22	6	16	-1	0.3	nt	3623
CC(C)CCNC(=O)C1CCCCN1S(=O)(=O)c1ccc(F)cc1 (configuration not stated)	-9	7	15	-2	1.9	7	4299
CCOC(=O)N1CCN(Cc2nc(N)nc(Nc3ccc(C)cc3C)n2)CC1	-19	10	1	6	8.7	nt	4046
CC(C)(C)NC(=O)/C(=C/c1ccco1)c1ccccc1	4	nt	nt	nt	nt	0	2823
C=CC[C@@H](CC(=O)N[C@H](CO)Cc1ccccc1)C(=O)N[C@@H](COC(=O)[C@@H](CC=C)CC(=O)OC(C)(C)C)Cc1ccccc1	-14	1	6	4	2.3	nt	3659
COc1ccccc1/C=N/Nc1cc(C)nc2ccc(C)cc12	-10	nt	nt	nt	nt	-5	3939
CCN(CC(=O)NCc1cccs1)C(=O)/C=C/c1ccc(OC)cc1OC	7	12	0	73	4.1	9	5257
Cc1ccc(O)c(Sc2cc(C)ccc2O)c1	-1	nt	nt	-19	11	4	3802
O=C1NC(=S)SC1=Cc1ccc(N(CCCl)CCCl)cc1	-14	19	9	80	87*	nt	3706
CCOC(=O)c1cc(S(=O)(=O)NC2CCN(C(=O)OCC)CC2)cn1C	2	-4	-8	5	3.4	0	2506
O=C(CCCCC(=O)Nc1ccc(F)cc1)Nc1ccc(F)cc1	-10	-3	-4	5	-5.9	16	3533
CC(C)(C)OC(=O)NCCOC(=O)c1[nH]cnc1C(=O)NCc1ccccc1	-23	2	11	-4	0.8	nt	3785
COc1ccc(CNCCC(c2ccccc2)c2ccc(OC(C)C)cc2)cc1OC (configuration not stated)	-15	17	12	7	-6.9	-15	4317
CCN(CCN(C)C)C(=O)Cn1ncc2c1-c1cc(C)ccc1OC2	15	nt	nt	0	0.1	7	5805
Cc1nc(S(=O)(=O)Nc2ccc3c(c2)OCCO3)cn1C	4	15	-2	5	3.0	-16	4477
COc1cc(-c2nc3cnccn3c2Nc2ccc3c(c2)OCCO3)ccc1O	-7	9	6	0	2.5	-2	4579
O=C(NCc1ccco1)/C(=C\C=C\c1ccccc1)NC(=O)c1ccco1	-7	11	8	-3	-0.2	-7	5284
COc1ccc(-n2nc(C(=O)NCC(=O)NCCCN3CCOCC3)c3ccccc3c2=O)cc1OC	-19	5	2	12	1.7	0	3529
CNC(=O)C(=O)NCC1OCCCN1S(=O)(=O)c1cccs1 (configuration not stated)	-33	1	-3	1	1.3	-6	2459
CN(C)CCNc1ccc(-c2n[nH]c(=O)c3ccccc23)cc1[N+](=O)[O-]	-8	1	-13	13	2.6	21	3760
COc1ccccc1N1CCN(C(=O)CCCC2=NS(=O)(=O)c3ccccc3N2)CC1	-14	8	8	-4	3.4	2	4404
Cc1ccc(-n2c(SCC(=O)N3CC(=O)Nc4ccccc43)nc3ccccc3c2=O)cc1	-15	-3	2	-3	-10	-24	2044
O=C(CN1C(=O)c2ccccc2C1=O)Nc1sc2c(c1C(=O)NCC1CCCO1)CCC2 (configuration not stated)	10	2	7	-8	-1.1	8	22614*
O=C(N/N=C\c1ccco1)Nc1cccc(Cl)c1	-50	nt	nt	nt	nt	-3	2657
OCCN(CC(O)Cn1ccc2ccccc21)CC(O)Cn1ccc2ccccc21 (configuration not stated)	-21	-7	2	-20	-3.4	-1	nt
COc1ccc(CCNC(=O)c2ccc(Cl)cc2Cl)cc1OC	-35	11	0	11	1.0	0	4313
CC(C)(C)C(=O)O/N=C(\N)Cc1ccc(-c2csnn2)cc1	-21	nt	nt	nt	nt	3	3770
COc1ccccc1-c1nc(-c2cccc(C)c2)no1	-82	nt	nt	16	-9.6	8	4648
N#Cc1c(C(F)(F)F)cc(-c2ccco2)nc1SCc1ccncc1	-15	9	9	5	-5.4	-12	4434
Cc1cccc(C)c1NC(=O)CSc1nc2[nH]c(=O)cc(O)c2s1	-10	8	7	10	6.3	nt	3514
Cc1ccc(/C(O)=C2\C(=O)C(=O)N(CC(C)O)C2c2cccc(F)c2)cc1 (configuration not stated)	-21	2	2	-8	-17	2	2597
COc1ccc(-c2nc(CS(=O)CC(=O)NCCCN3CCCC3)c(C)o2)cc1OC (configuration not stated)	-29	3	14	0	1.0	3	5475
COC(=O)[C@@H]1CCCN1Cc1c(C(=O)N2CCCCC2)nc2c(C)cccn12	-15	5	8	0	3.4	-8	2571
CCCCn1c(N)c(N(CCOC)C(=O)C2CCN(C(=O)c3ccccc3C)CC2)c(=O)[nH]c1=O	-17	11	0	9	6.1	-9	5835
Cc1cc(NS(=O)(=O)c2ccc(NC(=O)c3ccccc3C)cc2)no1	-21	17	5	1	-0.8	-6	2901
O=C(Cn1nc(C(F)(F)F)c2c1CCC2)N1CCN(c2ccccc2)CC1	-17	3	6	5	4.8	-3	23434*
CC(NCC(c1ccco1)N1CCCCC1)C(=O)NC1CCCC1 (configuration not stated)	-2	15	4	-68	15	0	7050
CC1(C)CC(=O)C2=C(C1)c1c(ccc3ccccc13)NC2c1ccc(Br)o1 (configuration not stated)	-23	18	8	10	-16	-5	nt
COCc1c(Br)c(C)nc(OCC(=O)N/N=C/c2ccc(C)o2)c1C#N	-51	nt	nt	nt	nt	-3	3961
O=C(COC(=O)c1cccc(O)c1)Nc1ccc(Cl)cc1C(=O)c1ccccc1	-19	8	3	-11	-3.8	2	3256
